High-throughput results (PubChem BioAssay)
MT1-MMP act inh = blocks activation of human MT1-MMP | P50281 | HT1080 RFP-PRO-GFP cells, GFP/RFP ratio fluorescence, overnight; percent of plate control window, DMSO zero | GFP/RFP ratio change, % at 20 µM | hit rate 0.061% among 360,000 | AID 651647;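 active = GFP/RFP ratio change of at least 30% with cell ATP level not reduced by more than half and red fluorescence within 50% of control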; note: strong numbers were not always called active
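Material – HT1080 RFP-PRO-GFP cells · Control set – DMSO wells and RFP-L50D-GFP cells · Incubation – overnight cell settling, then overnight compound exposure, 37 °C, 5% CO2 · Compound dosing – single-point 20 µM compound, 1% DMSO · Read-out – GFP/RFP fluorescence ratio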
Yeast UUG start = alters start codon recognition fidelity in yeast | S. cerevisiae UUG-firefly luciferase reporter, luminescence/redox ratio | AID 602363 | activity score, % at 18.7 µM | hit rate 0.13% among 350,000;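 active = replicate mean at a twofold rise or more, about +100% in these data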;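 note: firefly luciferase made from a UUG start codon reports start codon fidelity; reporter light over untreated wells divided by growth signal over untreated wells; some hits fall short of that in this replicate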
MT1-MMP act inh RFP = recorded beside MT1-MMP act inh, whose call it bears; RFP signal change, %; measured here: RFP expression control read;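 0 = vehicle wells; hits needed this value within 50% of zero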
* hit, by the source's call. These rows are one share of the data (hit frequency here may not be typical).

SMILES | MT1-MMP act inh | MT1-MMP act inh RFP | Yeast UUG start
O=C(NCO)c1cccnc1 | 0 | 0 | -3
CCOC(=O)c1c(C)[nH]c(NC(=O)NNC(=O)c2ccc(OC)cc2)c1C | 2 | 3 | -21
Cc1ccccc1-c1nnc(SCC(=O)NCC2CCCO2)o1 (stereo not drawn) | 3 | 0 | -8
COCCN(CCOC)Cc1cc(=O)oc2cc(C)cc(C)c12 | -1 | 2 | -6
O=C(C1CC(=O)N(c2ccc3c(c2)OCCO3)C1)N1CCN(S(=O)(=O)c2ccc(F)cc2)CC1 (stereo not drawn) | -5 | -5 | -10
COc1ccc(NC(=O)c2cc(C3CCCCN3C(=O)Cc3ccc(N(C)C)cc3)on2)c(C)c1 (stereo not drawn) | -3 | -11 | 1
Cc1ccc(-c2csc3ncnc(SCC(=O)NCC4CCCO4)c23)cc1 (stereo not drawn) | -3 | 1 | -9
Cc1ccc(OCCCC(=O)Nc2ccc(S(=O)(=O)N3CCOCC3)cc2)cc1 | 0 | -13 | -14
CCCCN1C(=O)C(=O)N(CC(=O)c2cc(C)n(C3CC3)c2C)C1=O | 5 | 1 | -14
CC(C)NC(=O)C1(C)CCCCCN1C(=O)c1ccc(-c2ccccc2)cc1 (stereo not drawn) | -2 | 0 | 7
CNc1nc(NCc2cccc(OC)c2)c2sccc2n1 | 4 | -11 | -9
COc1ccc(-c2noc(Cn3cc(S(=O)(=O)N4CCCC4)ccc3=O)n2)cc1 | -5 | -1 | -8

Arranged by SMILES length (ascending): three of the compounds above
SMILES | MT1-MMP act inh | MT1-MMP act inh RFP | Yeast UUG start
CNc1nc(NCc2cccc(OC)c2)c2sccc2n1 | 4 | -11 | -9
Cc1ccc(-c2csc3ncnc(SCC(=O)NCC4CCCO4)c23)cc1 (stereo not drawn) | -3 | 1 | -9
O=C(C1CC(=O)N(c2ccc3c(c2)OCCO3)C1)N1CCN(S(=O)(=O)c2ccc(F)cc2)CC1 (stereo not drawn) | -5 | -5 | -10

(listing goes on)
SMILES | MT1-MMP act inh | MT1-MMP act inh RFP | Yeast UUG start
Cc1cccc(-n2ncc3c(=O)[nH]c(SCC(=O)N4CC(=O)Nc5ccccc54)nc32)c1 | -2 | -3 | -17
CCCCn1c(N)c(N(CCC(C)C)C(=O)COC(=O)c2ccc3ccccc3c2)c(=O)[nH]c1=O | -30 | -20 | 7
O=C(CN1C(=O)NC2(CCCCCCC2)C1=O)Nc1ccc(Br)cc1Br | 3 | -5 | -5
O=C(NCCc1ccc2c(c1)OCCO2)c1cc(S(=O)(=O)N2CCCC2)ccc1Br | -2 | -9 | -21
CN(C)S(=O)(=O)c1ccc(NC(=O)Cn2nc(-c3ccc4c(c3)OCCO4)ccc2=O)cc1 | 0 | -4 | -16
CCOc1ccccc1C(=O)NCC(=O)N1CCN(Cc2ccc3c(c2)OCO3)CC1 | 6 | 1 | 1
Cc1ccc(F)c(S(=O)(=O)NC(=O)C2(C)CCN2C(=O)Cc2ccc(C(C)(C)C)cc2)c1 (stereo not drawn) | 0 | 2 | -4
Cc1cc(C)c(-c2c(N)cc(Br)cc2Br)c(N)c1 | -4 | -11 | -12
COCCNc1nnc(SCC(=O)NNC(=O)c2ccco2)s1 | -2 | 2 | -12
CCCCN(C(=O)COC(=O)c1ccc(C=O)cc1)c1c(N)n(CCC)c(=O)[nH]c1=O | -2 | 4 | -28
CCN1CCN(c2ccc(S(=O)(=O)N3CCOCC3)cc2NC(=O)CCSC)CC1 | -2 | 4 | 4
COCCNC(=O)C1CCCN(C(=O)Cc2ccc(F)cc2)CC1 (stereo not drawn) | 5 | 3 | -7

Reprinted at random: 2 records from the list
SMILES | MT1-MMP act inh | MT1-MMP act inh RFP | Yeast UUG start
CCCCN(C(=O)COC(=O)c1ccc(C=O)cc1)c1c(N)n(CCC)c(=O)[nH]c1=O | -2 | 4 | -28
Cc1ccc(F)c(S(=O)(=O)NC(=O)C2(C)CCN2C(=O)Cc2ccc(C(C)(C)C)cc2)c1 (stereo not drawn) | 0 | 2 | -4

Remaining list, next part:
SMILES | MT1-MMP act inh | MT1-MMP act inh RFP | Yeast UUG start
Cc1cccc(S(=O)(=O)NC(=O)C2(C)CCN2C(=O)c2cccc(F)c2)c1 (stereo not drawn) | -6 | 3 | -15
COc1cc(OC)cc(C(=O)NCC(=O)OC2CCCCC2=O)c1 (stereo not drawn) | -2 | 3 | -15
Clc1cccc(Cc2c(-c3ccccc3)nc3ccc(Br)cn23)c1 | -11 | -5 | -16
COc1ccc(C(=O)COC(=O)CN2C(=O)NC3(CC(C)CC(C)(C)C3)C2=O)c(OC)c1 (stereo not drawn) | -7 | -3 | 9
CC(C)(CC1(C)NC(=O)NC1=O)OCc1ccccc1 (stereo not drawn) | 5 | 5 | -6
Cc1cc(Cl)ccc1OCC(=O)OCC(=O)NCCNC(=O)COC(=O)COc1ccc(Cl)cc1C | -1 | -1 | -2
NC(=O)c1cccc(-c2ccnc3c2CC(C(=O)Nc2cccc(Oc4ccccc4)c2)O3)c1 (stereo not drawn) | -5 | -14 | -20
O=C(NNC(=O)c1ccc(-c2ccc([N+](=O)[O-])cc2)o1)c1ccncc1 | 3 | 2 | -10
COCCNC(=O)C1CCCN(Cc2ccccc2F)CC1 (stereo not drawn) | 2 | 5 | -27
CC(C)CN(C(=O)CSc1nnc(C2CC2)n1-c1ccccc1)C1CCS(=O)(=O)C1 (stereo not drawn) | 0 | 1 | -12
CN1CCN(C(=O)c2cccc(S(=O)(=O)N3CCCC3)c2)CC1 | -1 | 1 | -21
Cc1noc(C)c1S(=O)(=O)N(C)C[C@H]1Oc2c(NC(=O)Nc3ccc(C(F)(F)F)cc3)cccc2C(=O)N([C@H](C)CO)C[C@@H]1C | 6 | -3 | -13
CC(C)COC(=O)N1CCCCC1c1cc(C(=O)Nc2ccc3c(c2)OCO3)no1 (stereo not drawn) | 1 | -4 | -5
CSc1ncnc2c1ncn2CCCNCCc1ccccn1 | -7 | 1 | 0
COc1ccc(C(CNC(=O)CNC(=O)c2cccc(C)c2)N2CCCCC2)cc1 (stereo not drawn) | 1 | 3 | -17
Nc1ccc(-c2cnc(N)c(C(=O)c3cccnc3)n2)cn1 | -18 | -10 | -9
O=C(CN1CCN(S(=O)(=O)c2ccc(Cl)c(Cl)c2)CC1)N1CCCCC1 | -5 | -7 | -12
CCN(c1ccccc1)S(=O)(=O)c1ccc(Cl)c(NC(=O)CN2CCN(C)CC2)c1 | -3 | -9 | 1
O=C1Cc2cc(S(=O)(=O)Nc3cccc(F)c3)ccc2N1 | -5 | -1 | -23
NC(=O)NC[C@@H]1CC[C@@H](Cc2ccc(-c3ccccc3)cc2)O1 | -1 | -11 | -4
CC(C)=CCOc1ccc2c(C)c(CCC(=O)N3C[C@H]4C[C@@H](C3)c3cccc(=O)n3C4)c(=O)oc2c1C | 3 | -6 | -1
Cc1nn(CC(=O)N(C)c2c(N)n(Cc3ccccc3)c(=O)[nH]c2=O)c(C)c1[N+](=O)[O-] | -1 | 0 | -9
COc1ccc(N2CSC(=S)N(c3ccc(OC)cc3)C2)cc1 | 7 | 2 | -21
CC(C)[C@H](NC(=O)c1ccccc1)C(=O)Nc1ccc2c(c1)OCO2 | -4 | -1 | -28
CC(=O)c1cccc(NC(=O)CCN2C(=O)C3CC=CCC3C2=O)c1 (stereo not drawn) | -1 | -3 | -6
CC(=O)c1cccc(NC(=O)C2Cc3c(-c4ccc(Cl)cc4)ccnc3O2)c1 (stereo not drawn) | -1 | -22 | -14
Cc1noc(C)c1COC(=O)c1ccc(F)c(S(=O)(=O)N2CCOCC2)c1 | 5 | -3 | -13
CCOC(=O)c1cccc(OC(=O)CCNC(=O)c2ccc(Cl)cc2)c1 | 5 | 3 | 2
CC(O)(c1cccc(F)c1)c1nc(-c2ccc3ccccc3c2)cs1 (stereo not drawn) | 4 | -7 | -3
O=C(CN1CCN(S(=O)(=O)c2ccc3c(c2)OCCO3)CC1)Nc1ccccc1Br | 0 | -1 | -21
C[C@H](NS(=O)(=O)c1ccc(Cl)cc1)C(=O)OCC(=O)Nc1cc(S(=O)(=O)N2CCOCC2)ccc1Cl | 1 | 3 | -3
Cc1cc(Br)cn2c(Cc3ccccc3)c(-c3cccc(Br)c3)nc12 | -5 | -3 | -15
CC1=C(C(=O)N(C)C)CC(CC(=O)NCc2cccs2)C(=O)N1CCC1=CCCCC1 (stereo not drawn) | 4 | 4 | -1
Cc1cc(C)n2nc(C(=O)OCC(=O)NCc3ccc(Cl)cc3)nc2n1 | 0 | 6 | -8
O=C(CNS(=O)(=O)c1cccc(F)c1)OCC(=O)N1CCCC1=O | 3 | 3 | -11
Cn1nc(C(=O)NNC(=O)C(CCC(N)=O)NS(=O)(=O)c2ccc(Cl)cc2)c2ccccc2c1=O (stereo not drawn) | -2 | 2 | 0
COc1cccc(NC(=O)CN(C)C(=O)/C=C/c2ccc(S(=O)(=O)N3CCCCCC3)cc2)c1 | 5 | -6 | -22
COc1ccc(CCNC(=O)COC(=O)c2ccc(C)s2)cc1OC | -2 | 1 | 4
O=C1NC(=O)C2(CCCCCC2)N1 | 1 | 2 | -15
O=C(COC(=O)CCNS(=O)(=O)c1ccccc1)Nc1ccc(OC(F)F)cc1 | -2 | 2 | 10
CCNC(=O)C1(C)CCN(C(=O)c2ccccc2OC(F)(F)F)C1 (stereo not drawn) | -2 | 1 | -9
CON(C)S(=O)(=O)c1cccc(C(=O)Nc2cccc(S(=O)(=O)NC3=NCCCCC3)c2)c1 | -2 | -8 | -4
Cc1ccc(SCC(=O)Nc2oc(C)c3c(C)n[nH]c(=O)c23)cc1C | 1 | 1 | 4
CN(C)CCCNC(=O)c1ccc(-c2cc(O)c3ncccc3c2)cc1 | 11 | 9 | -25
COc1ccc(C2CCCCCN2C(=O)C2CCN(S(=O)(=O)c3cccc(C(C)=O)c3)CC2)cc1 (stereo not drawn) | -16 | 1 | -21
COCCNC(=O)C1(C)CCCN(C(=O)c2ccccc2F)C1 (stereo not drawn) | 1 | 0 | -3
Cc1ccc(NC(=O)COC(=O)CCc2c(C)nc3nc(N)nn3c2C)cc1C | 1 | 6 | -18
CCN(CC)C(=O)[C@H]1C[C@H](CC(=O)NC/C=C(\C)CCC=C(C)C)C(=O)N2CCc3c([nH]c4ccc(Cl)cc34)[C@]12C | -24 | -26 | -21
COc1cc(C(=O)N2CCC2(C)C(=O)O)cc(OC)c1OC (stereo not drawn) | 1 | 5 | -14
Cc1c(C(=O)N(C)CCOc2ccccc2)oc2c(Cl)cccc12 | -1 | -1 | -1
CCN(CC(=O)Nc1ccc(OC)cc1)C(=O)c1ccc(=O)n(Cc2ccccc2)n1 | -8 | -3 | -4
O=C1C(c2ccccc2)C2C=CC(C2)N1O (stereo not drawn) | -1 | 0 | -15
Nc1c(C(=O)CSc2nnnn2-c2ccc(O)cc2)c(=O)[nH]c(=O)n1C1CC1 | 2 | 0 | -8
CC1=C(C(=O)N(C(C)C)C(C)C)CC(CC(=O)NCCc2ccccn2)C(=O)N1Cc1ccc(F)cc1 (stereo not drawn) | 3 | 2 | -2
CC(C)(C)C(=O)CSc1ccc(S(=O)(=O)N2CCCC2)cn1 | 3 | 0 | -10
O=C(COC(=O)c1ccc2ncsc2c1)Nc1cccc(Cl)c1 | 2 | 0 | -9
Cc1cn([C@H]2C[C@H](O)[C@@H](/C=C/C(=O)NCCc3ccc4ccccc4c3)O2)c(=O)[nH]c1=O | 0 | 3 | -4
COc1cc(OC)cc(C(=O)NC(C(=O)Nc2ccc3nc(C)sc3c2)C(C)C)c1 (stereo not drawn) | -3 | -10 | 9
COc1ccc(NC(=O)CN(C)CC(=O)c2[nH]c(C)c(C(C)=O)c2C)cc1 | -3 | -1 | -6
NC1(C(=O)O)CCCCC1c1ccccc1 (stereo not drawn) | -2 | 2 | -14

(more compounds)
SMILES | MT1-MMP act inh | MT1-MMP act inh RFP | Yeast UUG start
Fc1cccc(Cc2c(-c3cccc(Cl)c3)nc3c4ccccc4ccn23)c1 | -4 | -5 | -14
Cc1cc(C)cc(OCC(=O)OCC(=O)NC2CCCCCC2)c1 | -3 | 1 | -13
CC(=O)Nc1ccc(C=NNC(=O)CCCC(=O)NN=Cc2ccc(NC(C)=O)cc2)cc1 | 3 | 3 | -25
O=C(O)c1ccsc1Cc1cccs1 | -5 | -3 | -2
CC(O)(c1cccc(F)c1)c1nc(-c2cc(F)cc(F)c2)cs1 (stereo not drawn) | 1 | -3 | -27
COc1cc(NC(=O)c2ccccc2)c(OC)cc1NC(=O)CN1C(=O)NC2(CCCCC2C)C1=O (stereo not drawn) | 2 | 3 | 0
N#Cc1ccc(C(=O)N2CCN(S(=O)(=O)c3ccc(Cl)s3)CC2)cc1 | -1 | -3 | 0
COc1ccc(NC(=O)CSc2nnc(C)s2)cc1S(=O)(=O)N1CCOCC1 | -1 | 1 | 0
CC1CCCC(NC(=O)NC(=O)COC(=O)c2ccc(O)cc2O)C1C (stereo not drawn) | -5 | -4 | -14
CCCn1c(SC(C)C(=O)NC2CC2)nnc1-c1ccncc1 (stereo not drawn) | -1 | 1 | -16
CC(C(=O)NC1(C#N)CCCCC1)N(C)CC(=O)Nc1ccc(Cl)c(Cl)c1 (stereo not drawn) | 4 | -11 | -9
O=C(Nc1ccc(Cl)cn1)c1ccccc1-c1ccccc1 | 0 | 0 | -3
O=C(OC1C2C=CC1C1C(=O)NC21)c1ccccc1 (stereo not drawn) | 1 | 3 | -10
CN(C(=O)CSc1nc2ccccc2n1C)C1CCS(=O)(=O)C1 (stereo not drawn) | -2 | 4 | -16
CC(=O)C1=CCC(c2ccccc2)N(S(=O)(=O)c2cccc(C)c2)C1 (stereo not drawn) | -1 | -2 | 12
CC(C)(C)CCN1CCC(CN2CCNC2=S)CC1 | 1 | 4 | -14
O=C(C1CCC1)N1CCN(S(=O)(=O)c2ccc([N+](=O)[O-])cc2)CC1 | -4 | -2 | -13
